Screening results as filed in PubChem BioAssay.
Vaccinia Venus: vaccinia inhibition (Venus reporter). Vaccinia virus Venus reporter expression, fluorescence. Potency, µM (highest dose often 36.5 µM), for the others: at the highest dose activity change, negative = inhibition, usual class: inhibitors. 330,000 compounds, 0.46% hits. AID 720580; active means well fitted inhibition curve with a large enough effect; inconclusive means small, poorly fitted or top-dose-only effect; inactive means no such curve, though single readings can be large or run the other way; tested in A549 cells; also: nearly all actives have a fitted effect of over 30% in size; inactives centre near -10
Vaccinia mCherry: inhibitors of vaccinia virus infection (mCherry reporter signal) | 310,000 compounds, 0.63% hits | Potency, µM (top dose mostly 36.5 µM), inactives show at the highest dose activity change, negative = inhibition, actives largely listed as inhibitors | Vaccinia virus mCherry reporter infection, fluorescence; about a quarter of the inactives have no number; active = well fitted inhibition curve with a large enough effect; inconclusive = small, poorly fitted or top-dose-only effect; inactive = no such curve, though single readings can be large or run the other way; tested in A549 cells; also: nearly all actives have a fitted effect of over 35% in size; inactives centre near -10
An asterisk follows results filed as active; i = inactive; ? = inconclusive; . = no result given; & = joins results of further samples; [ ] = dose if it differs, or a comment. % is scaled to controls: 0 for no effect and ±100 for the full control effect; potency is read from the fitted curve at half-maximal effect.

canonical_smiles,Vaccinia Venus,Vaccinia mCherry
CC(C)(C)OC(=O)N1CCC(c2cc(-c3cccs3)n[nH]2)CC1,-10%,-22%
CCCCN(C(=O)c1ccc2c(c1)S(=O)(=O)N=C1CCCCCN12)c1c(N)n(CCCC)c(=O)[nH]c1=O,6%,-17%
Cc1ccc(-c2nc(-c3cc4cccc(OCc5cccc(C)c5)c4oc3=O)no2)cc1,7%,-3%
Cc1ccc(CN2C(=O)C(Cc3ccccc3)Nc3ncnc(N4CCOCC4)c32)cc1 (stereo unspecified),-5%,i
Cc1ccc(CCNC(=O)CN(c2ccc(C)cc2)S(=O)(=O)c2c(C)noc2C)cc1,-1%,-6%
Cc1ccc(-c2nc3ccccc3o2)cc1NC(=O)c1cccc2c(Cl)cccc12,?,?
Cc1ccc(NC(=O)COc2ccc3oc4c(c3c2)CCCC4)c(C)c1,-11%,-15%
O=C(CN1C(=O)COc2ccc(S(=O)(=O)N3CCCCC3)cc21)NCCc1ccc(Cl)cc1,-10%,-20%
CCOC(=O)c1cccc2c1-c1ccccc1/C2=N/O,?,?
COc1ccc(C2=NN(Cc3ccccc3)C3C(=O)NC(=O)C23)cc1 (stereo unspecified),-13%,i
CCOc1cc(N2CCOCC2)c(OCC)cc1NC(=O)COc1cccc2cccnc12,13µM*,?
COCCCNC(=O)Nc1ccc(Br)cc1Cl,-12%,-9%
Nc1ccc(C(=O)Nc2ccc(Nc3ccncc3)cc2)cc1,-2%,-23%
Cc1nc(Nc2cccc(C(F)(F)F)c2)nc2c1C(=O)CC(C)C2 (stereo unspecified),7%,.
O=C(Nc1ccc(F)cc1)/C(=C1/CCCCCN1)[N+](=O)[O-],-1%,-20%
Cc1ccccc1CCNCc1c(C(=O)O)c(C)n(Cc2c(F)cccc2Cl)c1C,-5%,0%
Cc1nn(-c2ccc(F)cc2)c(C)c1NS(=O)(=O)c1ccc2ccccc2c1,-12%,-18%
O=c1ccn([C@@H]2O[C@H](CNCc3ccccc3)[C@@H](O)[C@H]2O)c(=O)[nH]1,-1%,i
Cc1ccc(C(=O)/C=C/Nc2ccccc2C(N)=O)cc1,-23%,?
COc1cccc(/C=N/Nc2ccnc(=O)[nH]2)c1O,?,0.79µM*
CC1CCCCC1NCC#CCOc1ccc(Cl)cc1 (stereo unspecified),-25%,i
O=C(O)C1CCCN1c1ncnc2ccccc12 (stereo unspecified),-6%,i
COc1ccccc1CNS(=O)(=O)c1c(C(=O)N2CCCCCC2)c(C)n(C)c1C,-16%,-8%
CCCC(=O)Nc1sc2c(c1C(=O)OC)C(C(=O)OC)CC2 (stereo unspecified),-26%,?
Nc1ccc(N2CCN(c3ccc(F)cc3)CC2)cc1,-2%,?
Cc1ccc(OCCN2CCC2(C)C(=O)Nc2ccc3c(c2)OCO3)cc1 (stereo unspecified),-4%,3%
CC(C)C[C@H](NC(=O)N1CCn2c1nc1ccccc12)C(=O)NCc1ccc2c(c1)OCO2,?,-22%
CC(C)NC(=O)c1cc2cc(Br)ccc2oc1=O,-8%,i
Cc1cc[n+](C(C)C(=O)c2ccc(Cl)cc2)cc1 (stereo unspecified),-12%,-19%
Cc1cc(/C=N/n2cnnc2)c(C)n1-c1ccc(Cl)cc1Cl,-18%,-4%
CCN(CC)S(=O)(=O)c1cccc(C(=O)OCC(=O)c2ccc3c(c2)OCCO3)c1,-12%,i
CC1CCCCN1S(=O)(=O)c1ccc2c(c1)oc(=O)n2CC(=O)Nc1ccc(Cl)cc1 (stereo unspecified),-14%,-10%
COCCN1C[C@@H](CO)O[C@@H](n2cnc3c(NC4CCC4)ncnc32)C1,-2%,50%[activator]
Nc1ncn(C(=S)Nc2ccccc2)n1,-5%,-15%
CCOC(=O)c1cc([N+](=O)[O-])c([N+](=O)[O-])cc1NC(C)=O,-4%,-10%
O=C(COc1ccc(S(=O)(=O)NC2CCCCC2)cc1Cl)NCC1CCCO1 (stereo unspecified),-17%,-17%
OC(c1ccccc1)(c1ccccc1)c1nccn1-c1ccccc1,-5%,-14%
COc1ccc(OC)c(NC(=O)N2CCCC(C)C2)c1 (stereo unspecified),-11%,i
CN(C)c1ncnc2c1ncn2[C@H]1CN(Cc2ccccc2)C[C@@H](CO)O1,-1%,-1%
CC1CCN(C(=O)CCNS(=O)(=O)c2ccc(Cl)cc2)CC1,-10%,-17%
O=C(NCc1ccccc1)c1onc(CS(=O)(=O)c2ccc(Cl)cc2)c1C(=O)NCc1ccccc1,?,?
CCCOc1cccc(C(=O)N(Cc2sccc2C)C2CCS(=O)(=O)C2)c1 (stereo unspecified),-12%,-19%
CC(C)C(=O)Nc1cccc(-c2csc(-c3ccccc3)n2)c1,?,-23%
O=c1ccnc(S/C=C/c2ccccc2)[nH]1,-12%,i
O=C1C2CC=CCC2C(=O)N1c1ccc(Cc2ccncc2)cc1 (stereo unspecified),-30%,-26%
COc1ccc(/C(O)=C2/C(=O)C(=O)N(c3nc(C)c(C)s3)C2c2ccco2)cc1 (stereo unspecified),-2%,.
O=C(CNC(=O)c1cccc(Br)c1)N/N=C/c1cn[nH]c1-c1ccccc1,-21%,i
Nc1nc(SCC(=O)NC2CCCC2)[nH]c(=O)c1NC(=O)c1cccs1,-8%,-17%
COc1ccc(CN=CC2=C(O)CNC2=O)cc1,-5%,.
CCOC(=O)c1sc2ncn(CC(=O)NCC3CCCO3)c(=O)c2c1C (stereo unspecified),-28%,-7%
O=C(Nc1ccc(Cl)c(C(F)(F)F)c1)[C@@H]1CC=C[C@@H]2CCN(Cc3ccc(Cl)c(Cl)c3)C(=O)[C@@H]21,?,?
O=C(/C=C/[C@H]1O[C@@H](n2ccc(=O)[nH]c2=O)[C@H](O)[C@@H]1O)NCCCc1ccccc1,-4%,3%
O=C(CSCC(=O)N1CCCCC1)Nc1nc(-c2ccc(Cl)s2)cs1,?,?
Cc1csc2nc(COC(=O)c3ccccc3NC(=O)COc3ccccc3F)cc(=O)n12,-15%,i
COc1ccc(N=Nc2cc(C)c(O)c(CN3CCCCC3)c2)cc1,-7%[7.34 µM],?
CCOC(=O)CNC(=O)c1cccnc1,-7%,-7%
Cn1cccc1C(=O)OCC(=O)N1c2ccccc2NC(=O)C1(C)C,-1%,0%
Cc1cc(NC(=S)NC(=O)/C=C/c2ccc(S(=O)(=O)N3CCOCC3)cc2)ccc1Br,-11%,-2%
CN1C(=O)CSc2ccc(NC(=O)N3CCC(N4CCCCC4)CC3)cc21,-6%,-6%
COc1ccc(Oc2nc(C)nc3c2oc2ccccc23)cc1,?,?

(more compounds)
canonical_smiles,Vaccinia Venus,Vaccinia mCherry
CC(C)CC(c1nnnn1C1CCCC1)N1CCN(C(=O)c2ccco2)CC1 (stereo unspecified),-27%,.
CCCCCCN1CCN(C2CN(Cc3cn(Cc4ccc(Cl)cc4)nn3)S(=O)(=O)C2)CC1 (stereo unspecified),-9%,-8%
CCCCNC(=O)CSc1nc2ccccc2nc1Cc1ccc(Cl)cc1,0%,-13%
CC(Oc1cccc2cccnc12)C(=O)N/N=C/c1ccccc1 (stereo unspecified),3%,-6%
Cc1nc(CCl)cc(=O)[nH]1,-27%,-25%
O=C(O)CC(c1ccc(Cl)cc1)N1Cc2ccccc2C1=O (stereo unspecified),-4%,-12%
Cc1noc(C)c1CSc1ccc(Br)cc1,-16%,-3%
CCc1nc(SCC(=O)NCc2ccco2)c2c3c(sc2n1)CCCC3,-17%,-17%
CCN(CC)c1cc(C)c(C#N)c2nc3ccccc3n12,-12%,-9%
O=C(COc1ccc2ccc(=O)oc2c1)N1CCN(c2ccccc2)CC1,-9%,i
CCS(=O)(=O)CCn1c([N+](=O)[O-])cnc1C,-17%&3%,-2%&-11%
COc1ccc(C(=O)N/C(=C\c2ccc(-c3cccc([N+](=O)[O-])c3)o2)C(=O)NCCCN2CCOCC2)cc1,?,-9%
Cc1cc(NC(=S)N(CCN2CCCCC2)Cc2ccco2)ccc1Cl,-20%,-23%
CC(=O)c1ccc(OCc2cc(C(=O)NCCn3nc(C)cc3C)no2)cc1,-17%,i
CCCCn1c(N)c(N(CC)C(=O)C2COc3ccccc3O2)c(=O)[nH]c1=O (stereo unspecified),-15%,-6%
O=C(c1ccccc1)c1cn(Cc2ccc(F)cc2)c2ccccc2c1=O,-15%,-8%
COc1cc(/C=C/C(=O)NCCN2CCOCC2)cc(OC)c1OC,-18%,i
O=C1Nc2cc(Cl)ccc2Oc2cc(Oc3ccccc3)ccc21,-22%,-29%
COc1ccc(C(C)C)cc1S(=O)(=O)n1ccnc1C,-21%,-4%
O=C(NC(c1ccccc1)c1ccccc1)c1ccccc1,-26%,-8%

Some of the entries so far, field by field:
O=C(c1ccccc1)c1cn(Cc2ccc(F)cc2)c2ccccc2c1=O
  Vaccinia Venus = -15%
  Vaccinia mCherry = -8%

COc1cc(/C=C/C(=O)NCCN2CCOCC2)cc(OC)c1OC
  Vaccinia Venus = -18%
  Vaccinia mCherry = i

O=C1Nc2cc(Cl)ccc2Oc2cc(Oc3ccccc3)ccc21
  Vaccinia Venus = -22%
  Vaccinia mCherry = -29%

COc1ccc(C(C)C)cc1S(=O)(=O)n1ccnc1C
  Vaccinia Venus = -21%
  Vaccinia mCherry = -4%

(next part)
canonical_smiles,Vaccinia Venus,Vaccinia mCherry
COc1ccc(NC(=O)c2c(NCc3ccc(C)o3)sc3c2CCCCC3)c(OC)c1,1%,-7%
COc1ccccc1C=NNc1ccc([N+](=O)[O-])cn1,-1%,-15%
CCOC(=O)N1CCN(C(=O)c2ccc3c(c2)NC(=O)/C(=C/c2ccccc2)S3)CC1,-14%,-22%
Cc1cccc(C)c1NC(=O)NNC(=O)c1cc(C(C)(C)C)nn1Cc1ccccc1,-8%,i
Cc1cccc(/C=c2\s/c(=C\C(=O)C(C)(C)C)[nH]c2=O)c1,?,.
O=C(OCc1ccccc1)c1ccc(NCc2cc(O)ccc2O)cc1,?,10µM*
CCCC(c1nnnn1Cc1ccco1)N1CCC(C(N)=O)CC1 (stereo unspecified),-12%,-19%
COC(=O)c1cc(NC(=O)COC(=O)CCc2c[nH]c3ccccc23)cc(C(=O)OC)c1,-3%,-4%
CSc1ccc(S(=O)(=O)N2CCC(C(=O)NCCCn3ccnc3)CC2)cc1,-8%,-12%
CC(C)(C)n1nc2c(c1NC(=O)Cc1ccc(F)cc1)CS(=O)(=O)C2,-3%,-12%
COc1ccccc1NS(=O)(=O)c1ccc(N/N=C/c2c(C)nn(-c3ccccc3)c2N2CCCC2)c([N+](=O)[O-])c1,-15%,-8%
CC1=C(C(=O)Nc2ccccc2)C(c2ccccn2)n2nc(CCCO)nc2N1 (stereo unspecified),-4%,-9%
Cc1cc(C)cc(NC(=O)C2CCN(S(=O)(=O)c3ccc4c(c3)oc(=O)n4C)CC2)c1,-14%,-2%
Cc1ccc(CNC(=O)CCCN2C(=S)NC(C)(C)CC2C)cc1 (stereo unspecified),-1%,0%
CCCN1C(=O)/C(=N\OCC(=O)Nc2ccc(C(C)C)cc2)c2ccccc21,-15%,i
CN(C(=O)COc1ccc(Oc2ccccc2)cc1)C1CCS(=O)(=O)C1 (stereo unspecified),-2%,-10%
CC(C)c1ccc(-n2c(O)c(/C=N/NC(=O)c3ccccc3O)c(=O)[nH]c2=S)cc1,-2%,-3%
O=C(CCCN1Cc2ccccc2C1)c1ccc(F)cc1,-13%,-11%
O=C(Nc1ccc2oc(-c3ccncc3)nc2c1)c1cccs1,-3%,-6%
Clc1ccccc1/C=N/Nc1cc(N2CCOCC2)ncn1,-16%,i

Some values from the entries so far:
Clc1ccccc1/C=N/Nc1cc(N2CCOCC2)ncn1 @ Vaccinia Venus: -16%
COc1ccc(NC(=O)c2c(NCc3ccc(C)o3)sc3c2CCCCC3)c(OC)c1 @ Vaccinia mCherry: -7%

Continuation:
canonical_smiles,Vaccinia Venus,Vaccinia mCherry
CCOc1ccc(C(NC(C)=O)c2ccc(OC)c(OC)c2)cc1 (stereo unspecified),6%,i
CCN1CCN(c2nc([N+](=O)[O-])nn2C)CC1,-9%,-13%
O=C(CSc1nccn1-c1ccc(Cl)cc1)Nc1cccc2ccccc12,-15%,-1%
Cn1nc(C(C)(C)C)cc1NC(=O)Nc1ccc(F)cc1F,-6%,i
Cc1c(NC(=O)c2cccs2)cccc1-c1nc2cc(Cl)ccc2o1,-7%,1%
COc1ccccc1OC(C)C(=O)Nc1cccc(-c2nc3ccccc3o2)c1 (stereo unspecified),1%,-9%
CCCCOc1ccc(CNC(=O)c2ccc(-c3nc(CN4CCc5ccccc54)c(C)o3)cc2)cc1,-6%,-8%
O=C(Nc1cccc(F)c1)N1C2CCC1CC(O)(c1cccnc1)C2 (stereo unspecified),-7%,-15%
CC(C)C[C@@H](CNC(=O)OC(C)(C)C)NC(=O)c1nc[nH]c1C(=O)N[C@@H](CC(C)C)C(=O)CNC[C@H](CC(C)C)NC(=O)c1nc[nH]c1C(=O)N[C@@H](Cc1c[nH]c2ccccc12)C(=O)OC(C)(C)C,-15%,-4%
O=C(CN1CCN(CC(=O)Nc2ccc3c(c2)OCO3)CC1)Nc1ccc(F)cc1,-1%,.
COc1ccccc1CNC(=O)c1c(O)nc2cc(C)ccn2c1=O,1%,3%
